Screens as filed in PubChem BioAssay.
Vaccinia Venus = inhibitors of vaccinia virus (Venus reporter) | Vaccinia virus Venus reporter expression, fluorescence | Potency, µM (highest dose often 36.5 µM), inactives show at the highest dose activity change, negative = inhibition, usual class: inhibitors | 0.46% of 330,000 active; active means well fitted inhibition curve with a large enough effect; inconclusive means small, poorly fitted or top-dose-only effect; inactive means no such curve, though single readings can be large or run the other way; tested in A549 cells; further: nearly all actives have a fitted effect of over 30% in size; inactives centre near -10
Vaccinia mCherry = vaccinia inhibition (mCherry reporter); Vaccinia virus mCherry reporter infection, fluorescence; about a quarter of the inactives have no number; Potency, µM (doses to about 36.5 µM), for inactives: top-dose activity change, negative = inhibition, most hits filed as inhibitors; 0.63% of 310,000 active; AID 720579; active = well fitted inhibition curve with a large enough effect; inconclusive = small, poorly fitted or top-dose-only effect; inactive = no such curve, though single readings can be large or run the other way; tested in A549 cells; further: nearly all actives have a fitted effect of over 35% in size; inactives centre near -10
* = called active by the depositor; i = inactive; ? = inconclusive; / = not tested or not shown; & = joins results of further samples; [ ] = another dose, or the depositor's remark. On the % scale 0 is the no-effect control and ±100 the full control effect; potency means the concentration at half of the fitted maximal effect. Random draw from the library; 0.87% or so of the library scored in one or more.

mol	Vaccinia mCherry	Vaccinia Venus
Cc1cc(-n2c(/C=C/c3cccs3)nc3ccccc3c2=O)ccc1Br	-3%	-6%
COc1cc(NCCCn2cnc(C(=O)Nc3ccc(C)c(C)c3)n2)cc(OC)c1OC	?	?
O=S(=O)(Cc1c(F)cccc1Cl)c1ncn[nH]1	-2%	-13%
CC(C)COC(=O)Nc1ccccc1C(=O)N1CCOCC1	/	-4%
C/C(=C\c1cccs1)C(=O)c1c(C)cc(C)[nH]c1=O	-13%	1%
O=C(O)C(Cc1ccccc1)NC(=O)C(Cc1ccccc1)NC(=O)C12CC3CC(CC(C3)C1)C2 (stereo not drawn)	-1%	7%
C=CCCC(=O)N1C[C@H]2CON(C)[C@H]2C[C@H]1c1cccc(Oc2ccccc2)c1	i	-12%
CN1C(=O)NC(=O)[C@]2(Cc3ccccc3N3CCN(c4ccccc4)CC32)C1=O (stereo partly drawn)	-1%	-19%
COc1ccc2c(c1)CC=C1C2CCC2(C)C(=O)C(=NO)CC12 (stereo not drawn)	-20%	-22%
COc1c2ccccc2c(OC)c2ccccc12	-17%	-8%
Cc1[nH]c2ccccc2c1/C=N\NC(=O)Cn1nnc(-c2ccccc2)n1	-14%	-19%
Cc1ccc(C(=O)NNC2=Nc3cc([N+](=O)[O-])ccc3OC2)cc1	?	-18%
CCCCn1nnc(NC(=O)COc2cc(C)ccc2C(C)C)n1	?	-22%
Oc1ccc(F)c2cccnc12	-6%	-16%
COC(=O)Cc1ccc(NC(=S)N2CCN(CCO)CC2)cc1	i	-8%
COC(=O)C(Cc1cccc(C)n1)(c1ccccc1)c1ccccc1	-13%	-16%
CCN1CCN(S(=O)(=O)c2ccc(Cl)c(C(=O)Nc3ccccc3N3CCCC3)c2)CC1	-5%	-11%
Cc1ccc([C@H]2C[C@@H](O)[C@H](n3cc(COC(=O)c4ccccc4)nn3)CN2C(=O)c2cccs2)cc1	i	-21%
CCOC(=O)C1(Cc2ccc(Cl)cc2)CCN(C(=O)C2CCCO2)CC1 (stereo not drawn)	i	-17%
C/C(=N\Nc1nc(N)cc(Cl)n1)c1cccc([N+](=O)[O-])c1	-16%	-6%
Cc1cccc(C(=O)Nc2nc(-c3nnn(-c4cc(F)ccc4F)c3C)ns2)c1	-19%	-26%
CCOC(=O)[C@H]1[C@H]2COc3cc(OC)ccc3[C@@H]2N2C(=O)CN(C)C(=O)[C@@]12C	i	-7%
CCN(CC(=O)Nc1ccc(NC(C)=O)cc1)CC(=O)Nc1cccc(Cl)c1	-6%	-18%
Cc1cc(Br)cn2c(Cc3cccc(F)c3)c(-c3ccc(C#N)cc3)nc12	-4%	-1%
CN(C(=O)C1CCCCC1)C1(C)CCS(=O)(=O)C1 (stereo not drawn)	-14%	-4%
Cc1cc(C)c(NC(=O)COC(=O)C2=COCCO2)c(C)c1	i	-3%
CC(Sc1ncn[nH]1)C(=O)NCc1ccccc1 (stereo not drawn)	-16%	-11%
COc1ccc(C(=O)N(Cc2cc(OC)c(OC)c(OC)c2)C2CCS(=O)(=O)C2)cc1Cl (stereo not drawn)	-5%	-2%
CCOc1ccc(CN2CCN(Cc3ccc4c(c3)c3ccccc3n4CC)CC2)cc1	?	?
CCc1ccc(OCc2nnc(SCC(=O)NCC3CCCO3)n2C)cc1 (stereo not drawn)	i	-3%

Looked up above.
Entry of Cc1ccc([C@H]2C[C@@H](O)[C@H](n3cc(COC(=O)c4ccccc4)nn3)CN2C(=O)c2cccs2)cc1 in Vaccinia Venus: -21%
Entry of COC(=O)C(Cc1cccc(C)n1)(c1ccccc1)c1ccccc1 in Vaccinia Venus: -16%

(next part)
mol	Vaccinia mCherry	Vaccinia Venus
Cc1ccc(C)c(OCC(=O)Nc2cc(C)on2)c1	i	-7%
COc1ccccc1CNC(=O)CSc1nnc2c(Cl)cc(C(F)(F)F)cn12	-9%	-1%
CCN(CC)c1ccc(/C=N/NC(=O)c2cnccn2)cc1	-29%	?
O=C(NC1CCCCC1)C(c1ccc2ncccc2c1)N(Cc1ccc2c(c1)OCO2)C(=O)c1ccc2c(c1)OCCO2 (stereo not drawn)	i	8%
CCOC(=O)c1cc(-c2ccccc2)nn1CC1CC(c2ccc(Cl)cc2)=NO1 (stereo not drawn)	-7%	-3%
Cc1cccc(CNC(=O)CN2C(=O)CCCc3ccccc32)c1	-10%	-7%
CCCCCCCCCCCCN1[C@@H](CC(=O)OC)c2cc(F)ccc2S1(=O)=O	i	-19%&-14%
CC1CCc2ccccc2N1C(=O)c1cccs1 (stereo not drawn)	-16%	-18%
C(=C\c1c[nH]c2ccccc12)/c1ccc2ccccc2n1	?	-10%
O=C(Cn1c(=O)nc(-c2ccccc2)c2ccccc21)NCc1ccc(Cl)cc1	-9%	-21%
Cn1c(=O)n(C)c2cc([N+](=O)[O-])c(N3CCN(C(=O)c4cccc(Cl)c4)CC3)cc21	-7%	-14%
O=S(=O)(NCC1CCCN(Cc2ccccc2O)C1)c1cccc2cccnc12 (stereo not drawn)	-5%	-19%
Cc1ccc([C@H]2C[C@H](O)[C@@H](n3cc(-c4ccc(F)cc4)nn3)CN2C(=O)C2CCCCC2)cc1	4%	-25%
O=S(=O)(/N=C(\Sc1ccc(Cl)cc1)c1ccccc1)c1ccccc1	-7%	-1%
COc1ccccc1NC(=O)c1coc(=O)c(Br)c1	-17%	-9%

Shown as labelled records: part of the list above
mol: Cn1c(=O)n(C)c2cc([N+](=O)[O-])c(N3CCN(C(=O)c4cccc(Cl)c4)CC3)cc21
  Vaccinia mCherry: -7%; Vaccinia Venus: -14%
mol: O=S(=O)(NCC1CCCN(Cc2ccccc2O)C1)c1cccc2cccnc12 (stereo not drawn)
  Vaccinia mCherry: -5%; Vaccinia Venus: -19%

(further entries)
mol	Vaccinia mCherry	Vaccinia Venus
CCOC(=O)c1cnc(SC)nc1Sc1cc(Cl)ccc1Cl	/	-12%
CSc1ncc(C(=O)N2CCN(c3cc(Cl)ccc3C)CC2)c(C)n1	-8%	-2%
COc1cccc(Nc2c(F)c(F)c(F)c(F)c2C(=O)O)c1	i	1%
O=C(Nc1ccn(Cc2ccc(F)cc2)n1)c1ccncc1	/	?
CCn1nc(C)c(NS(=O)(=O)c2ccc(C)cc2)c1C	-27%	-19%
O=C(NCCO)c1cccc(-c2cccc3nccn23)c1	-23%	?
Cc1ccc(N2C(=O)C(O)(C(F)(F)F)C3=C2CC(C)(C)CC3=O)cc1 (stereo not drawn)	-14%	-9%
Cn1nc(-c2ccccc2)cc1NC(=O)c1ccccc1	-8%	-7%
O=C(Nc1ccc(F)c(Cl)c1)N1CCCCCC1	-8%	-12%
COc1ccc(C(=O)N2CCC(C)(C(=O)NS(=O)(=O)C3CC3)C2)cc1 (stereo not drawn)	34%[activator]	2%
CC(C)C(=O)Nc1cccc(COc2cccc(CN(Cc3ccccc3)C(=O)OC(C)(C)C)c2)c1	-15%	?
COc1ccc(C2SCC(=O)N2c2nnc(C34CC5CC(CC(C5)C3)C4)s2)cc1 (stereo not drawn)	-12%	-4%
Cn1c(SCc2ccccc2)nnc1C1CCCNC1 (stereo not drawn)	-19%	-8%
CC(=O)c1cccc(Nc2nc(-c3sc(N)nc3C)cs2)c1	-11%	-10%
COc1ccc(C2SCCN2S(=O)(=O)c2ccc(NC(C)=O)cc2)cc1OC (stereo not drawn)	-24%	-6%

Brought forward from above: two compounds; new compounds follow.
mol	Vaccinia mCherry	Vaccinia Venus
CC(=O)c1cccc(Nc2nc(-c3sc(N)nc3C)cs2)c1	-11%	-10%
COc1ccc(C2SCCN2S(=O)(=O)c2ccc(NC(C)=O)cc2)cc1OC (stereo not drawn)	-24%	-6%
O=C(/C=C/c1ccc([N+](=O)[O-])cc1)NC1CC2CCC1C2 (stereo not drawn)	-16%	-13%
O=C(NCCc1ccccc1)NC(Cc1ccccc1)C(=O)O (stereo not drawn)	-16%	1%
COc1ccc(N(C(=O)c2ccco2)C(C(=O)NC2CCCC2)c2cccs2)c(OC)c1 (stereo not drawn)	i	3%
O=C(Nc1c(S(=O)(=O)c2ccc(Cl)cc2)csc1Br)c1ccccc1Cl	-12%[7.34 µM]	-7%[7.34 µM]
COc1ccc(/C=C2\SC(=S)N(CCCC(=O)Nc3ccc(O)cc3)C2=O)cc1	?	0%
O=C(OCc1cn([C@@H]2C[C@H](c3ccccc3)N(Cc3cccs3)C[C@H]2O)nn1)c1ccccc1	i	-6%
CCCOc1cccc(C2c3c(-c4ccccc4O)n[nH]c3C(=O)N2Cc2ccco2)c1 (stereo not drawn)	-16%[7.34 µM]	-13%[7.34 µM]
Fc1ccc(NC(=S)Nc2cccnc2)cc1Cl	-27%	?
CCc1nnc(NC(=O)c2nc(SCc3cccc(C)c3)ncc2Cl)s1	-7%	-8%
CCOC(=O)N1CCC(NC(=O)Cn2nc(Cc3ccncc3)c3ccccc3c2=O)CC1	-15%	-4%
Cc1ccc(S(=O)(=O)N2CCOCC2)cc1C(=O)NCCCn1ccnc1	-1%	-4%
O=c1sc(N2CCN(c3ccccc3F)CC2)nc2ccsc12	-2%	4%
COc1ccc(NC(=O)CCn2c(=S)[nH]c3ccccc3c2=O)cc1	-21%	?
CCn1c(=N)n(CC(=O)c2ccc(Br)s2)c2ccccc21	?	-9%
Cc1cc[n+](CC(=O)c2ccccc2)c2ccccc12	5%&-9%	3%&-19%

Whole records, looked up by structure. Order of screens: Vaccinia mCherry, Vaccinia Venus
COc1ccccc1CNC(=O)CSc1nnc2c(Cl)cc(C(F)(F)F)cn12 in the list: -9%, -1%
COc1ccc(/C=C2\SC(=S)N(CCCC(=O)Nc3ccc(O)cc3)C2=O)cc1 in the list: ?, 0%
CCCCCCCCCCCCN1[C@@H](CC(=O)OC)c2cc(F)ccc2S1(=O)=O in the list: i, -19%&-14%
COc1ccc(C2SCCN2S(=O)(=O)c2ccc(NC(C)=O)cc2)cc1OC (stereo not drawn) in the list: -24%, -6%

Following part
mol	Vaccinia mCherry	Vaccinia Venus
Cc1cc(/C=C2\NC(=O)NC2=O)c(C)n1-c1cccnc1	-11%	-8%
CCOC(=O)CSc1nc2c(sc3cccc(F)c32)c(=O)n1Cc1ccc(OC)cc1	-6%	-20%
O=C(NCc1ccc(Cl)c(Cl)c1)c1cc(C2CCCCN2C(=O)c2cccs2)on1 (stereo not drawn)	?	-24%
C=CCOc1ccccc1CNc1cccc(F)c1	-23%	-13%
O=C(Cc1ccc(Cl)cc1)N/N=C/c1ccncc1	i	-11%
CCCCNc1nc2c(-c3cccc(Br)c3)nnn2c2ccccc12	3%	13%
COc1cc(/C=N/O)cc(Br)c1OC	-3%	-1%
Cc1cccc(Cn2cc3c(=O)n(Cc4cccc(F)c4)nc-3c3ccccc32)c1	5%	1%
COC(=O)c1ccc(NC(=O)N2CCC(CN3CCc4ccccc4C3)CC2)cc1	-8%	-13%
O=C(NCC(c1cccs1)N1CCOCC1)c1cn(-c2ccccc2)nc1-c1ccccc1 (stereo not drawn)	-23%	-13%
COc1ccc(/C=N/n2c(C)cc(C)cc2=O)cc1	i	-6%
CCCCNc1oc(-c2ccc(COc3ccccc3C)o2)nc1C#N	-27%	?
CCOC(=O)c1n[nH]c2ccccc12	-2%	-1%
Cc1occc1C(=O)N1CCN(c2ccc(Cl)cc2)CC1	-27%	-13%
Cc1ccccc1C1N=C2Oc3ccccc3C=C2C(=O)N1 (stereo not drawn)	?	?
O=C(CSCc1ccccc1)NNC(=S)Nc1cccc(Cl)c1Cl	/	-16%
C/C=C(\C)C(=O)Nc1cccc(C2=NOC3(C2)C[C@H](C(N)=O)N(C(=O)CC#N)C3)c1 (stereo partly drawn)	-9%	-13%
CCCCN(C(=O)c1cc2c(s1)CCC2)c1c(N)n(CC(C)C)c(=O)[nH]c1=O	-9%	-2%
COc1ccc(S(=O)(=O)N2CCOC2CNC(=O)C(=O)NCCCN2CCOCC2)cc1C (stereo not drawn)	-19%	-15%
O=C(CCN1CCN(c2ccc([N+](=O)[O-])cc2)CC1)c1ccc(Cl)cc1	-29%	-2%
Cc1nn(-c2ccccc2)c(C)c1C(=O)OCC(=O)NCc1ccco1	-3%	-14%
CCOc1cc2c(cc1OCC)-n1cccc1C(c1ccc(C)cc1C)NC2 (stereo not drawn)	?	-12%
CCOC(=O)Cn1cc([N+](=O)[O-])nc1[N+](=O)[O-]	/	2%
CCc1nnc(NC(=O)c2cccc(S(=O)(=O)N3CCc4ccccc43)c2)s1	/	-2%
CN(C)C(=O)c1ccc(NC(=O)COc2cccc3c2OC(C)(C)C3)cc1	-3%	-11%
Cc1cc(C)c2c(=O)[nH]n(C3CCOC(C)(C)C3)c2n1 (stereo not drawn)	i	-16%
Cc1cc(=O)n2[nH]c(NCc3c(F)cccc3Cl)nc2n1	-8%	-4%
CN(C)C=Nc1nc2ccccc2nc1N1CCCC1	-1%	-1%
Cc1cc(C)n(-c2nc(C)c(C)c(=O)n2CC(=O)Nc2ccc(Cl)c(Cl)c2)n1	-6%[7.34 µM]	-8%[7.34 µM]
Clc1cccc(-c2csc(-c3nc(-c4ccc(Br)s4)cs3)n2)c1	3%	2%
CC(=O)OC1CCC2(C)C(CCC3C4CC=C(C(C)=O)C4(C)OC(=O)CC32)C1 (stereo not drawn)	?	11µM*
